Source: PubChem BioAssay
UUG fidelity: modulators of start codon recognition fidelity in yeast; S. cerevisiae UUG-firefly luciferase reporter, luminescence/redox ratio; activity score, % at 18.7 µM; 350,000 compounds, 0.13% hits;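 active = replicate mean at a twofold rise or more, about +100% in these data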;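 also: firefly luciferase made from a UUG start codon reports start codon fidelity; reporter light over untreated wells divided by growth signal over untreated wells; some hits fall short of that in this replicate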
Env fusion inh: blocks HIV Env-driven cell-cell fusion. HeLa-JRFL Env/CEM21 cell fusion, luciferase. 360,000 compounds, 1.1% hits. inhibition, % at 12.3 µM;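 active = mean replicate inhibition score of at least 50 and every replicate individually at or above 50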;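 also: 0% = plate neutral controls and 100% = maraviroc near 300 nM; one replicate is shown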
* = called active by the depositor; [ ] = another dose, or the depositor's remark. An excerpt; count on the stated rates, not on these rows.

Screens in order – Env fusion inh, UUG fidelity
- C[C@@H]1CCCCO[C@H](CN(C)Cc2ccc(C(F)(F)F)cc2)[C@@H](C)CN([C@@H](C)CO)C(=O)c2cc(NS(=O)(=O)c3cn(C)cn3)ccc2O1
    -167.9[16.7 µM], 6.4
- COc1ccc(CN(C)C[C@H]2Oc3ccc(NS(=O)(=O)c4c(C)noc4C)cc3C(=O)N([C@@H](C)CO)C[C@@H]2C)cc1
    14.4[16.7 µM], -2.7
- CCNC(=O)C[C@H]1CC[C@H]2[C@@H](COC[C@H](O)CN2C(=O)C2CCOCC2)O1
    7.5[16.7 µM], -6.9
- C[C@@H]1CN([C@H](C)CO)S(=O)(=O)c2ccc(C#Cc3ccccc3)cc2O[C@H]1CN(C)S(=O)(=O)c1cn(C)cn1
    28.3[16.7 µM], 17.8
- C[C@H](CO)N1C[C@H](C)[C@H](CN(C)Cc2ccc(C(=O)O)cc2)Oc2ccc(NC(=O)Cc3ccccc3)cc2CC1=O
    -4.7[16.7 µM], -8.0
- CN1C(=O)c2cc(NC(=O)c3ccc(F)c(F)c3)ccc2OC[C@H]2O[C@H](CC(=O)N3CCCCC3)CC[C@@H]21
    5.9[16.7 µM], 4.8
- CCCC(=O)Nc1ccc2c(c1)C(=O)N(C)[C@H]1CC[C@H](CC(=O)N3CCc4ccccc4C3)O[C@H]1CO2
    -3.7[16.7 µM], 13.2
- C[C@H](CO)N1C[C@H](C)[C@H](CN(C)CC2CC2)Oc2ccc(NC(=O)Nc3ccc4c(c3)OCO4)cc2CC1=O
    65.2*[16.7 µM], -3.7
- C[C@@H]1CCCCO[C@H](CN(C)C)[C@H](C)CN([C@@H](C)CO)C(=O)c2cc(NC(=O)Nc3ccc(F)cc3)ccc2O1
    -6.2[16.7 µM], -14.2
- COc1cccc(C#Cc2ccc3c(c2)O[C@@H](CN(C)C(=O)CN2CCOCC2)[C@H](C)CN([C@@H](C)CO)S3(=O)=O)c1
    3.0[16.7 µM], 8.8
- COc1ccc(S(=O)(=O)Nc2ccc3c(c2)C(=O)N([C@@H](C)CO)C[C@H](C)[C@H](CN(C)C(=O)Nc2ccccc2)O3)cc1
    -22.2[16.7 µM], 8.4
- CCCNC(=O)C[C@@H]1CC[C@@H]2[C@H](COc3ccc(NC(=O)C4CCCC4)cc3C(=O)N2C)O1
    2.2[16.7 µM], -2.9
- C[C@@H]1CN([C@@H](C)CO)C(=O)c2cc(NS(=O)(=O)c3cn(C)cn3)ccc2O[C@@H](C)CCCCO[C@@H]1CN(C)S(=O)(=O)c1cn(C)cn1
    1.7[16.7 µM], 1.7
- O=C(N[C@@H]1CC[C@@H](CCNS(=O)(=O)Cc2ccccc2)O[C@@H]1CO)c1ccccc1F
    6.8[16.7 µM], -4.3
- C[C@@H]1CN([C@@H](C)CO)C(=O)Cc2cc(NC(=O)CCCCCC(=O)Nc3ccccc3N)ccc2O[C@@H]1CN(C)S(C)(=O)=O
    -6.7[16.7 µM], -0.6
- C[C@@H]1CN([C@H](C)CO)C(=O)Cc2cc(NS(=O)(=O)c3ccc(F)cc3)ccc2O[C@@H]1CN(C)C(=O)Nc1cccc2ccccc12
    7.5[16.7 µM], 2.4
- O=C(CC1CC1)Nc1ccc2c(c1)[C@@H]1C[C@@H](CC(=O)NC3CCCCC3)O[C@@H](CO)[C@@H]1O2
    11.5[16.7 µM], 11.1
- Cc1noc(C)c1NC(=O)N(C)C[C@@H]1Oc2ccc(NC(=O)Cc3ccccc3)cc2CC(=O)N([C@H](C)CO)C[C@H]1C
    -0.6[16.7 µM], 5.5
- COc1ccc(NC(=O)N(C)C[C@@H]2Oc3ncc(-c4cccnc4)cc3C(=O)N([C@@H](C)CO)C[C@H]2C)cc1
    12.7[16.7 µM], 50.8
- Cc1ccc(S(=O)(=O)Nc2ccc3c(c2)C(=O)N([C@@H](C)CO)C[C@@H](C)[C@@H](CN(C)S(=O)(=O)c2ccc(F)cc2)OCCCC[C@@H](C)O3)cc1
    -22.1[16.7 µM], -15.4

2 compounds drawn at random from those above, as already listed:
Screens in order – Env fusion inh, UUG fidelity
- C[C@@H]1CN([C@@H](C)CO)C(=O)Cc2cc(NC(=O)CCCCCC(=O)Nc3ccccc3N)ccc2O[C@@H]1CN(C)S(C)(=O)=O
    -6.7[16.7 µM], -0.6
- O=C(N[C@@H]1CC[C@@H](CCNS(=O)(=O)Cc2ccccc2)O[C@@H]1CO)c1ccccc1F
    6.8[16.7 µM], -4.3

Next part
Screens in order – Env fusion inh, UUG fidelity
- Cc1noc(C)c1NC(=O)N(C)C[C@H]1Oc2ccc(NS(=O)(=O)c3ccc(Cl)cc3)cc2C(=O)N([C@H](C)CO)C[C@H]1C
    21.8[16.7 µM], -7.0
- CO[C@@H]1CN(C)C(=O)c2ccc(NC(=O)c3cccc(F)c3)cc2OC[C@@H](C)NC[C@H]1C
    -40.5[16.7 µM], -5.1
- O=C(C[C@@H]1CC[C@H]2[C@@H](COC[C@@H](O)CN2Cc2cccc(Cl)c2)O1)NCC1CCCCC1
    25.8[16.7 µM], 9.1
- COc1ccc(NC(=O)Nc2ccc3c(c2)CC(=O)N([C@@H](C)CO)C[C@H](C)[C@H](CN(C)Cc2ccc(C(F)(F)F)cc2)O3)cc1
    41.5[16.7 µM], 15.7
- CC(C)CC#Cc1ccc2c(c1)O[C@@H](CN(C)C(=O)NC1CCCC1)[C@@H](C)CN([C@H](C)CO)S2(=O)=O
    13.4[16.7 µM], 10.7
- COc1ccc(CN(C)C[C@H]2OCCCC[C@H](C)Oc3ccc(NS(=O)(=O)c4ccc(OC)cc4)cc3C(=O)N([C@@H](C)CO)C[C@@H]2C)cc1
    -59.1[16.7 µM], 16.6
- CCNC(=O)C[C@@H]1CC[C@H]2[C@H](COc3ccc(NS(=O)(=O)c4ccccc4C)cc3C(=O)N2C)O1
    -8.1[16.7 µM], -0.8
- Cc1ccc(S(=O)(=O)Nc2cccc3c2O[C@@H](CN(C)C(=O)NC2CCCCC2)[C@@H](C)CN([C@H](C)CO)C3=O)cc1
    29.3[16.7 µM], -0.4
- CC(C)(C)c1ccc(N2C(=O)CS(=O)(=O)C2c2ccccc2)cc1 (stereo unspecified)
    -5.9[16.7 µM], -1.3
- CC(C)NC(=O)Nc1ccc2c(c1)C(=O)N([C@H](C)CO)C[C@@H](C)[C@@H](CN(C)Cc1ccc(C(=O)O)cc1)OCCCC[C@H](C)O2
    -5.0[16.7 µM], 8.1
- COCC(=O)N(C)C[C@H]1Oc2cc(-c3cncnc3)ccc2S(=O)(=O)N([C@H](C)CO)C[C@H]1C
    12.0[16.7 µM], 1.4
- CNC(=O)C[C@H]1CC[C@H]2[C@@H](COc3ccc(NC(=O)NC(C)C)cc3C(=O)N2C)O1
    13.9[16.7 µM], -16.1
- CC(C)NC(=O)N[C@H]1C=C[C@@H](CC(=O)NCc2ccc(Oc3ccccc3)cc2)O[C@H]1CO
    -8.8[16.7 µM], -1.0
- COCC(=O)N(C)C[C@H]1Oc2ncc(-c3ccccc3C)cc2C(=O)N([C@H](C)CO)C[C@H]1C
    -0.7[16.7 µM], 10.5
- CC(C)C#Cc1cnc2c(c1)C(=O)N([C@@H](C)CO)C[C@@H](C)[C@@H](CN(C)C(=O)c1cnccn1)O2
    -3.8[16.7 µM], 2.6
- C[C@@H]1CCCCO[C@@H](CN(C)Cc2ccc(C(F)(F)F)cc2)[C@H](C)CN([C@@H](C)CO)C(=O)c2cc(NC(=O)Nc3ccc(C(F)(F)F)cc3)ccc2O1
    58.9*[16.7 µM], -4.5
- O=C(C[C@H]1C[C@@H]2c3cc(NC(=O)NC4CCCCC4)ccc3O[C@@H]2[C@@H](CO)O1)NCc1ccccn1
    8.5[16.7 µM], -2.0
- O=C(C[C@H]1C=C[C@H](NC(=O)C2CCOCC2)[C@H](CO)O1)NCC1CCCCC1
    -2.7[16.7 µM], -1.8
- C[C@@H]1CCCCO[C@@H](CN(C)S(=O)(=O)c2ccc(F)cc2)[C@H](C)CN([C@H](C)CO)C(=O)c2cc(NC(=O)Nc3ccc4c(c3)OCO4)ccc2O1
    2.6[16.7 µM], -3.9
- COc1ccccc1-c1cnc2c(c1)C(=O)N([C@H](C)CO)C[C@H](C)[C@@H](CN(C)Cc1ccc(F)cc1)O2
    6.2[16.7 µM], 38.2
- C[C@@H]1CCCCO[C@H](CN(C)S(=O)(=O)c2ccccc2)[C@H](C)CN([C@@H](C)CO)C(=O)c2cc(NS(=O)(=O)c3ccccc3)ccc2O1
    -85.3[16.7 µM], 17.3
- C[C@@H]1CN([C@@H](C)CO)S(=O)(=O)c2ccc(C#Cc3ccc(F)cc3)cc2O[C@H]1CN(C)C(=O)NC1CCCC1
    -2.4[16.7 µM], 273.2*
- C[C@H](CO)N1C[C@H](C)[C@H](CN(C)C(=O)C2CCCCC2)Oc2cc(-c3ccncc3)ccc2S1(=O)=O
    15.5[16.7 µM], 16.9
- COc1ccc(S(=O)(=O)Nc2ccc3c(c2)CC(=O)N([C@H](C)CO)C[C@H](C)[C@@H](CN(C)S(=O)(=O)c2cccs2)O3)cc1
    1.4[16.7 µM], 5.2
- C[C@H]1CCCCO[C@H](CN(C)S(=O)(=O)c2cccs2)[C@@H](C)CN([C@@H](C)CO)C(=O)c2cc(NC(=O)CCC(F)(F)F)ccc2O1
    -33.3[16.7 µM], 33.7
- COC(=O)C[C@@H]1CC[C@@H]2[C@H](COc3ccc(NC(=O)c4ccccc4OC)cc3C(=O)N2C)O1
    -3.3[16.7 µM], 6.0
- C[C@@H]1CN([C@H](C)CO)C(=O)c2cccc(NS(=O)(=O)c3ccccc3)c2O[C@@H]1CN(C)Cc1ccc(Cl)c(Cl)c1
    81.3*[16.7 µM], -8.3
- Cc1ccc(S(=O)(=O)N(C)C[C@H]2Oc3ccc(NS(=O)(=O)c4ccccc4)cc3C(=O)N([C@H](C)CO)C[C@H]2C)cc1
    -20.4[16.7 µM], 2.6
- C[C@H](CO)N1C[C@H](C)[C@H](CN(C)S(=O)(=O)c2cn(C)cn2)Oc2ncc(C3=CCCCC3)cc2C1=O
    10.7[16.7 µM], 29.7
- CCCC#Cc1ccc2c(c1)O[C@@H](CN(C)CCC)[C@@H](C)CN([C@@H](C)CO)S2(=O)=O
    -11.3[16.7 µM], 10.0
- O=C(O)C[C@@H]1C=C[C@@H](NC(=O)Nc2cc(F)ccc2F)[C@@H](CO)O1
    0.5[16.7 µM], -9.5
- C[C@@H]1CN([C@H](C)CO)C(=O)Cc2cc(NS(=O)(=O)c3cccs3)ccc2O[C@@H]1CN(C)Cc1ccc(-c2ccccc2)cc1
    -36.6[16.7 µM], 4.0
- Cc1noc(C)c1S(=O)(=O)Nc1ccc2c(c1)CC(=O)N([C@@H](C)CO)C[C@H](C)[C@@H](CN(C)Cc1ccc(Cl)c(Cl)c1)O2
    9.1[16.7 µM], 8.0
- CCNC(=O)C[C@H]1CC[C@@H]2[C@@H](COc3ccc(NC(=O)C4CCCCC4)cc3C(=O)N2C)O1
    -12.8[16.7 µM], 24.1
- C[C@@H]1CN([C@@H](C)CO)C(=O)Cc2cc(N(C)C)ccc2O[C@@H]1CN(C)Cc1ccc(C(=O)O)cc1
    -12.9[16.7 µM], -2.2
- COc1ccccc1-c1cn(CC[C@H]2CC[C@H](NS(=O)(=O)c3ccccc3C)[C@@H](CO)O2)nn1
    6.8[16.7 µM], -9.1
- C[C@@H]1CN([C@H](C)CO)C(=O)Cc2cc(NC(=O)Cc3cn(C)c4ccccc34)ccc2O[C@@H]1CN(C)S(=O)(=O)c1cn(C)cn1
    19.9[16.7 µM], 7.7
- CCC(=O)Nc1ccc2c(c1)C(=O)N(C)C[C@@H](OC)[C@@H](C)CN(C(=O)c1ccncc1)[C@H](C)CO2
    -2.1[16.7 µM], -9.8
- C[C@H]1CN([C@@H](C)CO)C(=O)c2cccc(NS(=O)(=O)c3cn(C)cn3)c2O[C@@H]1CN(C)Cc1ccc(Cl)c(Cl)c1
    11.6[16.7 µM], -1.3
- Cc1ccccc1S(=O)(=O)NCC[C@H]1CC[C@@H](NC(=O)Nc2cccc(Cl)c2)[C@@H](CO)O1
    12.0[16.7 µM], -0.1

Filtered by structure: the entries above with a CF3 group (four)
Screens in order – Env fusion inh, UUG fidelity
- C[C@@H]1CCCCO[C@H](CN(C)Cc2ccc(C(F)(F)F)cc2)[C@@H](C)CN([C@@H](C)CO)C(=O)c2cc(NS(=O)(=O)c3cn(C)cn3)ccc2O1
    -167.9[16.7 µM], 6.4
- COc1ccc(NC(=O)Nc2ccc3c(c2)CC(=O)N([C@@H](C)CO)C[C@H](C)[C@H](CN(C)Cc2ccc(C(F)(F)F)cc2)O3)cc1
    41.5[16.7 µM], 15.7
- C[C@@H]1CCCCO[C@@H](CN(C)Cc2ccc(C(F)(F)F)cc2)[C@H](C)CN([C@@H](C)CO)C(=O)c2cc(NC(=O)Nc3ccc(C(F)(F)F)cc3)ccc2O1
    58.9*[16.7 µM], -4.5
- C[C@H]1CCCCO[C@H](CN(C)S(=O)(=O)c2cccs2)[C@@H](C)CN([C@@H](C)CO)C(=O)c2cc(NC(=O)CCC(F)(F)F)ccc2O1
    -33.3[16.7 µM], 33.7

New compounds follow
Screens in order – Env fusion inh, UUG fidelity
- O=C(C[C@@H]1CC[C@H]2[C@@H](COC[C@@H](O)CN2C(=O)Nc2ccc(F)cc2)O1)NCCc1ccccc1
    -2.2[16.7 µM], -12.6
- Cc1ccc(S(=O)(=O)N(C)C[C@@H]2Oc3c(NC(=O)Nc4ccc5c(c4)OCO5)cccc3C(=O)N([C@@H](C)CO)C[C@H]2C)cc1
    -38.9[16.7 µM], 7.7
- COc1ccc(CN(C)C[C@H]2OCCCC[C@H](C)Oc3ccc(NC(=O)Nc4ccc(F)cc4)cc3C(=O)N([C@@H](C)CO)C[C@H]2C)cc1
    -65.2[16.7 µM], 12.4
- C[C@@H]1CN([C@@H](C)CO)S(=O)(=O)c2ccc(C#Cc3cccc(F)c3)cc2O[C@H]1CN(C)C(=O)NC1CCCCC1
    -21.4[16.7 µM], -12.6
- CCCNC(=O)Nc1ccc2c(c1)OC[C@@H](C)N(C)C[C@H](C)[C@H](OC)CN(C)C2=O
    -4.3[16.7 µM], 6.2
- CNC[C@@H]1Oc2ccc(NC(=O)c3ccncc3)cc2CC(=O)N([C@@H](C)CO)C[C@@H]1C
    6.7[16.7 µM], -10.2
